H5N1 antiviral: MDCK cell protection from H5N1 avian flu | 96,000 compounds, 0.07% hits | inhibition, % at 50 µM | cytopathic effect, luminescence, 72 h; stronger effect = higher value; no value below 0 was filed and about half of the inactive calls have no number; reference of the scale not given here | AID 740; in the data active = inhibition above about 25%
The depositor's hits bear a star; i = inactive. This is a subset; rates above refer to the full screens.

item	Molecule	H5N1 antiviral
1	O=C(CSc1nc2c(c(C(F)(F)F)n1)CCc1ccccc1-2)NCc1ccco1	i
2	COc1ccc(S(=O)(=O)N(CCCN2CCCC2=O)Cc2cc3cc(C)c(C)cc3[nH]c2=O)cc1	i
3	O=C(NCc1ccco1)c1nn(-c2ccccc2)c(=O)c2ccccc12	i
4	Cc1cc(C)n(-c2nc3ccccc3nc2N2CCN(C(=O)c3ccc(F)cc3)CC2)n1	1.0
5	N#Cc1c2n(c3c(=O)n(Cc4ccccc4)cnc13)CCCC2	0.6
6	CCCc1ccc(OCC(=O)O)cc1	0.1
7	Cc1nc(-c2ccc3c(c2)OCO3)cs1	1.3
8	Cc1noc(C)c1COc1cccc(C(=O)Oc2ccc3c(c2)OCO3)c1	i
9	CC(C)Oc1ccc(CNC2CCOC(C)(C)C2)cc1 (configuration not stated)	i
10	O=C(O)CSC1c2ccccc2C(=O)N1Cc1ccccc1 (configuration not stated)	i
11	CC12CCC(C(=O)NCC3CCCO3)(OC1=O)C2(C)C (configuration not stated)	4.3
12	CCOc1ccc2ccccc2c1/C=N/n1cncn1	1.3
13	O=C(Nc1ccc(-c2nc3ccccc3[nH]2)cc1)c1ccco1	i
14	Cc1csc(NC(=O)c2nc3nc(C)cc(C)n3n2)n1	0.4
15	O=C(CSc1nnnn1-c1cccnc1)NCc1cccs1	1.0
16	C=CCSc1nc2ccccc2n1C(=O)/C=C/c1ccc(OC)c(OC)c1	i
17	Cc1nc(-c2ccc(S(=O)(=O)N3CCCCCC3)cc2)cs1	0.6
18	c1ccc(OCCCN2CCCC2)cc1	0.1
19	COc1ccc2[nH]c3c(N4CCN(Cc5ccc6c(c5)OCO6)CC4)ncnc3c2c1	6.8
20	CC(C)OC(=O)CSc1nnc(-c2ccncc2)n1N	i
21	O=c1c2ccccc2cnn1-c1ccc2ccccc2c1	i
22	Cc1ccc(C(=O)Nc2ccc(Br)c(C(F)(F)F)c2)cc1	6.3
23	NC(=O)c1c(N)sc(=S)n1CC1CCCO1 (configuration not stated)	1.5
24	CCOC(=O)C1=CN(c2cccc(F)c2)C=C(C(=O)OCC)C1c1cc(OC)c(O)c([N+](=O)[O-])c1	3.4
25	CSc1nc2cc(S(=O)(=O)N3CCOCC3)ccc2s1	1.3
26	Cc1cc(C)nc(SCc2nnc(SCC(=O)Nc3ccc(C)c(C)c3)n2Cc2ccco2)n1	i
27	CCC(NC(=O)C1(C)CC1(Br)Br)c1ccc(C)cc1 (configuration not stated)	0.4
28	CCCCCn1c(=NC(=O)c2ccco2)c(C(=O)OCC)cc2c(=O)n3ccccc3nc21	1.4
29	CCOC(=O)C1=C(C)NC(C)=C(C(=O)OCC)C1	i
30	Cc1ccc2cc(C(=O)O)c(C)nc2c1	i
31	CCOC(=O)N1CCC(NC(=O)CCS(=O)(=O)c2ccc3c(c2)CCN3C(C)=O)CC1	1.6
32	CCOC(=O)C(=O)Nc1ccccc1C(=O)NC(C)C	i
33	O=C(COC(=O)CNC(=O)C1CCCCC1)Nc1ccc(Cl)cn1	0.7
34	CCOC(=O)C1CCN(c2c(N(C)Cc3ccco3)c(=O)c2=O)CC1	1.0
35	Cc1ccc(C)c(CSc2nnc(-c3cccnc3)o2)c1	0.3
36	Cc1ccc(N(CC(N)=O)C2SC(=O)N(Cc3cccc(C(=O)O)c3)C2=O)cc1 (configuration not stated)	i
37	O=C(CSc1nnnn1C1CCCC1)Nc1ccc2c(c1)OCCO2	0.4
38	COC(=O)C1CCN(C(=O)N2CCOCC2)CC1	0.2
39	Cc1ccc2c(c1)C1OCCC1C1N2C(=O)C2C(C(=O)O)C3C=CC21O3 (configuration not stated)	i
40	Cc1csc(NC(=O)c2ccc(S(=O)(=O)N(C)c3ccccc3)cc2)n1	0.2
41	CCCCNC(=O)NS(=O)(=O)c1cnccc1Sc1ccc(Cl)cc1	i
42	CN(C)C(=O)c1cn(-c2ccccc2)c(=O)c2ccccc12	0.1
43	COc1ccc(-c2cn3c4c(sc3n2)CCCC4)cc1	i
44	O=C(CN1CCOCC1)n1c2ccccc2c2ccccc21	0.5
45	c1csc(-c2nn3c(Cn4cnc5ccccc54)nnc3s2)c1	12.7
46	COc1ccc(C)cc1NC(=O)c1cc2ccccc2o1	i
47	CCN(CC(=O)Nc1c(C(=O)OC)[nH]c2ccc(C)cc12)c1ccc2c(c1)OCO2	3.4
48	Cc1nn(CC(O)Cn2cnc3c2c(=O)n(C)c(=O)n3C)c(C)c1Br (configuration not stated)	i
49	CC1=CC(C)(C)N2C(=O)C3(SCC(=O)N3c3ccc(O)cc3)c3cc(C)cc1c32 (configuration not stated)	2.3
50	COc1cccc(C(=O)Oc2c(CN3CCOCC3)cc(Cl)c3cccnc23)c1	1.4
51	Cn1c(=O)[nH]c(=O)c2c1nc(NCCCn1ccnc1)n2CCOc1ccccc1	1.1
52	C=CCN1C(=O)C2(/C(=C(\O)c3ccc4c(c3)OCCO4)C(=O)C(=O)N2CCCOC)c2ccccc21 (configuration not stated)	1.5
53	CCOC(=O)c1c(-c2ccc(C)c(C)c2)csc1NC(=O)C1CC=CCC1C(=O)O (configuration not stated)	0.6
54	CS(=O)(=O)N(CC(=O)N1CCN(c2cccc(Cl)c2)CC1)C1CCCCC1	0.2
55	COc1ccc(N(CC(=O)Nc2ccccc2C(=O)NCCc2ccccc2)S(C)(=O)=O)cc1OC	i
56	O=C(O)c1ccc(COc2ccc(/C=N/NC(=O)c3cccs3)cc2)cc1	i

The listing continues:
item	Molecule	H5N1 antiviral
57	COc1ccc(Cl)cc1NC(=O)c1ccco1	i
58	FC(F)(F)c1ccc2c(c1)nnn2C1CCN(Cc2nnnn2Cc2ccccc2)CC1	i
59	O=C(c1cccn2c(=O)c3cc(Cl)ccc3nc12)N1CCOCC1	i
60	CC(NC(=O)c1ccccc1O)c1ccccc1 (configuration not stated)	0.1
61	Cc1ccc(C(=O)N2CCC(C(N)=O)CC2)cc1C	0.1
62	CN(C)c1ccc(CN(C(=O)COc2ccc(F)cc2)C2CCS(=O)(=O)C2)cc1 (configuration not stated)	0.7
63	COc1ccc(C(=O)N2CCCC(c3nc(-c4cccs4)no3)C2)cc1OC (configuration not stated)	i
64	CCN(CCO)c1ncnc2c1sc1nc(C(C)C)c3c(c12)CC(C)(C)OC3	i
65	COc1ccccc1-n1cnc2cc(C(=O)NCc3ccco3)ccc21	0.7
66	O=C(NC1CCCCNC1=O)c1ccc(Cl)cc1 (configuration not stated)	i
67	Cc1cc(NS(=O)(=O)c2ccccc2)n(-c2ccccc2)n1	0.8
68	CCOc1c(OC(C)=O)ccc(/C=C/c2ccc3cccc(OC(C)=O)c3n2)c1[N+](=O)[O-]	i
69	COc1ccc(C2=NN(C(=O)CSc3cn(C)c4ccccc34)C(c3ccc(OC)cc3)C2)cc1 (configuration not stated)	i
70	Cn1c(C(=O)N(Cc2ccccc2)Cc2ccccn2)cc2sccc21	i
71	CS(=O)(=O)N1CCCC(C(=O)NCc2cccs2)C1 (configuration not stated)	i
72	COc1ccc(CN2CNc3nc4ccccc4n3C2)cc1	i
73	CC(C)(C)c1ccc(C(=O)N/C(=C\c2cccs2)C(=O)NCc2ccco2)cc1	2.2
74	Cc1ccc(C(=O)OCC(=O)Nc2sc3c(c2C#N)CCCCC3)cc1NC(=O)c1ccco1	i
75	Nc1c(-c2ccccc2)cnn1-c1ccc(C(=O)O)cc1	i
76	Cc1cc2c(c(=O)n1Cc1cccnc1)C(c1cccs1)C(C#N)=C(N)O2 (configuration not stated)	0.1
77	Cc1csc(C(C#N)C(=O)c2ccc(S(=O)(=O)N3CCCC3)cc2)n1 (configuration not stated)	1.0
78	Cc1ccc(-c2cc(=O)[nH][nH]2)c(C)c1	i
79	O=C1c2ccccc2C(Nc2ccc3c(c2)OCCO3)N1c1ccc(Cl)cn1 (configuration not stated)	1.5
80	Cc1cc(C)cc(CSCC(=O)N/N=C/c2ccc(OCC(=O)NCc3ccco3)cc2)c1	0.4
81	O=C(CC1CCCCC1)c1c(O)c2ccccc2oc1=O	i
82	CN1CCN(Cc2cc(=O)oc3cc4c(cc23)CCC4)CC1	0.8
83	CCC1=Nc2cc(C(=O)NCCCOC)ccc2Sc2ccccc21	i
84	C=CCn1c(CCNC(=O)c2cccs2)nnc1SCC(=O)c1cccc([N+](=O)[O-])c1	6.0
85	CCCCNC(=O)OCC(CC)NC(=O)OCC(C)C (configuration not stated)	i
86	CCC/C(O)=C1\C(=O)CC(C)(C)CC1=Nc1ccc(OC)cc1OC	0.8
87	Cc1cc(CN2C(=O)c3ccccc3C2=O)on1	i
88	COc1cc(NC(=O)C2CC(=O)NC3=C2C(=O)CCC3)cc(OC)c1 (configuration not stated)	0.1
89	CCn1nc(C(=O)OCC(=O)N2c3ccccc3CC2C)c2ccccc2c1=O (configuration not stated)	0.5
90	Cc1onc(-c2c(F)cccc2Cl)c1C(=O)NCc1ccccn1	1.1
91	COc1ccc(S(=O)(=O)NCC(c2cccnc2)N2CCN(c3ccccc3OC)CC2)cc1C (configuration not stated)	2.5
92	COc1ccc(Nc2c3c(c(C#N)c4nc5ccccc5n24)CCC3)cc1	0.3
93	COc1cccc(C2CC(=O)NC3=C2C(=O)CCC3)c1 (configuration not stated)	i
94	CCS(=O)(=O)Nc1ccc(-c2nnc(SCC(=O)OC)o2)cc1	i
95	O=C1C2=C(SCCS2)C(=O)N1c1ccccc1	i
96	Nc1cc(OC(=O)c2ccco2)nn1S(=O)(=O)c1ccc(F)cc1	i

3 entries already listed, arranged by molecular weight, rising:
item	Molecule	H5N1 antiviral
88	COc1cc(NC(=O)C2CC(=O)NC3=C2C(=O)CCC3)cc(OC)c1 (configuration not stated)	0.1
4	Cc1cc(C)n(-c2nc3ccccc3nc2N2CCN(C(=O)c3ccc(F)cc3)CC2)n1	1.0
68	CCOc1c(OC(C)=O)ccc(/C=C/c2ccc3cccc(OC(C)=O)c3n2)c1[N+](=O)[O-]	i

(further entries)
item	Molecule	H5N1 antiviral
97	O=C(c1ccco1)N1CCN(c2cc(=O)n(C3CCCCC3)c(=O)[nH]2)CC1	i
98	N#Cc1ccccc1CSc1ccc(-c2nc3ccccc3[nH]2)cn1	i
99	O=C(c1cccc(S(=O)(=O)N2CCCCC2)c1)N1CCCCC1	i
100	Cc1onc(-c2ccccc2Cl)c1C(=O)NCCn1ccc2ccccc21	0.3
101	C=CCOc1cccc(C2C(C(=O)c3ccco3)=C(O)C(=O)N2CCN2CCOCC2)c1 (configuration not stated)	i
102	CC1(C)Cc2c(C#N)c(N3CCN(C(=O)c4ccccc4Cl)CC3)nc(-c3ccco3)c2CS1	0.4
103	CCN(CC)C(=O)c1sc2nc(N3CCOCC3)c3c(c2c1N)CCCC3	i
104	CCOC(=O)c1ccc(NCn2c(=O)oc3ccccc32)cc1	i
105	COc1cccc(NC(=O)C2CC(=O)N(C)C(=Nc3cccc(F)c3)S2)c1 (configuration not stated)	2.0
106	COCc1[nH]nc2c1C(c1ccnc3ccccc13)C(C#N)=C(N)O2 (configuration not stated)	i
107	Cn1c(SCc2ccccc2F)nc2cccnc21	1.8
108	Nc1cc(=O)[nH]c(=S)n1-c1cccc(C(F)(F)F)c1	0.4
109	COc1ccc(N(C(=O)Cc2cccs2)C(C(=O)NC2CCCCC2)c2cccn2C)cc1 (configuration not stated)	i
110	O=C(CN1CCN(S(=O)(=O)c2ccc(Cl)cc2)CC1)Nc1ccc(F)cc1F	i
111	O=C1c2ccccc2C(=O)N1n1c(=O)[nH]c2ccccc2c1=O	0.4
112	CC(C)(C)c1csc(NC(=O)c2ccc3nccnc3c2)n1	i
113	COc1ccccc1Oc1nc2c(c(=O)n(Cc3ccccc3F)c(=O)n2C)n1C	0.8
114	COc1cccc(/C(C)=N/NC(=O)c2ccc(N(C)C)cc2)c1	i
115	CCC(COC(=O)NC)NC(=O)Oc1cccc(C)c1 (configuration not stated)	i
116	O=C(c1ccccc1)N(Cc1ccc2c(c1)OCO2)Cc1nc2ccccc2c(=O)[nH]1	0.7
117	COc1ccc(C(=O)Nc2n[nH]c(-c3ccncc3)n2)cc1	i
118	CCCCCCC(=O)NN1CCN(C)CC1	0.8
119	Cc1ccc2nc(SCC(=O)NCc3cccs3)c(C#N)cc2c1	0.7
120	COc1ccccc1N(CC(=O)NCC1CCCO1)C(=O)CNS(=O)(=O)c1ccc(C)cc1 (configuration not stated)	1.6
121	CC(C)(C)N1Cc2ccccc2C1=N	0.4
122	CCC(C)(C)n1nnnc1C(c1ccncc1)N1CCN(c2cccc(OC)c2)CC1 (configuration not stated)	1.5
123	CCOc1ccc(C2N(c3ccc(F)cc3)C(=O)C3CCCN32)cc1OC (configuration not stated)	i
124	CCCc1nc2ccccc2c(=O)n1/N=C/c1ccccc1O	i
125	Cn1c(N2CCCCC2)nc2c1c(=O)[nH]c(=O)n2C	0.5
126	C=CCSc1nnc(CSc2nc3sc4c(c3c(=O)[nH]2)CCCC4)n1-c1ccccc1	0.1
127	Cc1cccc(NC(=O)COc2ccc3oc4c(c3c2)CCCC4)n1	i
128	CCc1ccc(C(=O)CSc2n[nH]c(C)n2)cc1	i
129	CCOC(=O)c1c(NC(=O)CSc2nnc(-c3ccccc3C)n2C)sc(C(C)=O)c1C	i
130	C=CCN1CCN(C(c2ccc(OC)c(OC)c2)c2nnnn2C(C)(C)C)CC1 (configuration not stated)	i
131	Oc1c(C(c2ccccn2)N2CCOCC2)ccc2cccnc12 (configuration not stated)	i
132	Cc1cnc(C(=O)Nc2nccs2)cn1	0.2
133	COc1ccc(NC(=O)c2cccs2)cc1O	0.4
134	CC(C(N)=O)N1C(=O)C2C3C=CC(C3)C2C1=O (configuration not stated)	0.2
135	Cc1ccc(N2C(=O)CSC23C(=O)Nc2ccccc23)cc1 (configuration not stated)	2.2
136	CCCNC(=O)C(=O)NCCC1=CCCCC1	0.7

Rewritten as labelled records: entries from further up
130: C=CCN1CCN(C(c2ccc(OC)c(OC)c2)c2nnnn2C(C)(C)C)CC1 (configuration not stated)
  H5N1 antiviral = i

132: Cc1cnc(C(=O)Nc2nccs2)cn1
  H5N1 antiviral = 0.2

135: Cc1ccc(N2C(=O)CSC23C(=O)Nc2ccccc23)cc1 (configuration not stated)
  H5N1 antiviral = 2.2

134: CC(C(N)=O)N1C(=O)C2C3C=CC(C3)C2C1=O (configuration not stated)
  H5N1 antiviral = 0.2

Source: PubChem BioAssay
